miR-21 FLuc: qHTS Assay for Modulators of miRNAs and/orActivators of miR-21. 340,000 tested, under 10 active. AID 2288, 2010. Potency, µM (titrated, usually from 38.3 µM), without a hit: at the highest dose reporter change, positive = more light. HeLa miR-21 FLuc reporter, luciferase, 48 h; active = well fitted rising curve with a large enough effect; inconclusive = small, poorly fitted or top-dose-only effect; inactive = no such curve, though single readings can be large or run the other way;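 further: % of control where 0% means no effect; miR-21 action dims this reporter so a rising signal means less miR-21 action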
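HeLa cells stably expressing CMV-driven firefly luciferase with a downstream miR-21 binding sequence, endogenously expressing miR-21, were treated with titrations (up to about 40uM final) for 48 hours at 37 degree Celsius. Luciferase luminescence was read after lysis.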
Rango release inh: qHTS Assay for Inhibitors of RanGTP induced Rango (Ran-regulated importin-beta cargo) - Importin beta complex dissociation. Snurportin-1 (Homo sapiens) + GTP-binding nuclear protein Ran (Homo sapiens) + Importin …. hit rate 0.071% among 340,000. AID 540253, 2011. Potency, µM (top dose mostly 46.1 µM), for inactives: at the highest dose activity change, negative = inhibition. Biochemical FRET Rango-importin beta, RanGTP-induced dissociation; active means falling FRET ratio curve, often poorly fitted, with flat reads before Ran was added; inconclusive means other falling curves, or compound fluorescence or quenching; inactive means flat or rising ratio curve;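 further: potency means the concentration at half of the fitted maximal effect; % of control where 0% means no effect; nearly all actives have a fitted effect of over 45% in size; -100% = wells without RanGTP and RCC1; the record marks most hits as doubtful in a second field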
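Rango/importin beta premix (0.1/0.25 uM final), PBS + 1 mM DTT + 0.02% Tween-20 + 0.1% BSA; cpd 5 min RT; FRET pre-read; + RanGTP-RCC1 (0.6 uM Ran, 2 mM GTP, 0.2 uM RCC1); 45 min RT; FRET post-read, ex 430, em 486/530 nm.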
Rango complex inh: qHTS Assay for Inhibitors of Rango (Ran-regulated importin-beta cargo) - Importin beta complex formation; Importin subunit beta-1 (Homo sapiens), Q14974; Rango CFP/YFP FRET sensor + importin beta, 45 min; Potency, µM (highest dose often 92.2 µM), inactives show top-dose inhibition of complex formation; hit rate 0.031% among 340,000; active = rising FRET ratio curve, often small or poorly fitted; inconclusive = mostly compound fluorescence or quenching in the first reads; inactive = flat curves in all reads;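 further: potency means the concentration at half of the fitted maximal effect; 0% = DMSO wells and 100% = buffer wells lacking importin beta; nearly all actives have a fitted effect of over 15% in size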
Target sequence (Q14974 whole entry, looked up): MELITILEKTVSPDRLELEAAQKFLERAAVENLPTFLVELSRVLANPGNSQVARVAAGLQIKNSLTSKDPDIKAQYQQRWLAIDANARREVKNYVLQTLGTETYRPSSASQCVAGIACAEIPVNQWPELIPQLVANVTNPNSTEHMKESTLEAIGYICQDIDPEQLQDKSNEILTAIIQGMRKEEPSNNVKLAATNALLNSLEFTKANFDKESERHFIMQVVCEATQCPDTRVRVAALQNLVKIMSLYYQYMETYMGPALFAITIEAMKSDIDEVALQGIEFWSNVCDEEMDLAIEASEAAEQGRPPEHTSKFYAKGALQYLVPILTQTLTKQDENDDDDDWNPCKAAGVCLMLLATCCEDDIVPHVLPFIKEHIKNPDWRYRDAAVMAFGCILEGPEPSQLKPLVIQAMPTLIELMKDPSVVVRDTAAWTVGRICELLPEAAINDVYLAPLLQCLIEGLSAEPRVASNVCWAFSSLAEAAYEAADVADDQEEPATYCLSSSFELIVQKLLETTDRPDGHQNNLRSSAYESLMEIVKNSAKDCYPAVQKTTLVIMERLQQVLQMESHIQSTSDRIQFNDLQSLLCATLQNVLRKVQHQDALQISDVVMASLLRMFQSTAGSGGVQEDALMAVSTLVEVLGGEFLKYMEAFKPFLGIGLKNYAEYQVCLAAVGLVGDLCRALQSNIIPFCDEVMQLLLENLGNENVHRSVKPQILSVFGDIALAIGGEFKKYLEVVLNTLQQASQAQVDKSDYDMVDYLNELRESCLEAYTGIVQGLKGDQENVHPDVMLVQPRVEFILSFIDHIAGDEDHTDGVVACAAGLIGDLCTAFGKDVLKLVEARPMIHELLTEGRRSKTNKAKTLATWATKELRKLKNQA
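FRET biosensor Rango (snurportin 1 IBB between N-terminal EYFP and C-terminal Cerulean), 50 nM in PBS/1 mM DTT/0.02% Tween-20/0.1% BSA, preincubated 5 min RT with compound; 0.125 microM importin beta added, 45 min RT, CFP/YFP FRET ratio read.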
GLA inh pH 4.5: qHTS Assay for Inhibitors of Human alpha-Galactosidase at pH 4.5. purified enzyme, 4-MU-alpha-Gal fluorescence, pH 4.5. AID 1467, 2008. 230,000 tested, under 10 active. Alpha-galactosidase A (Homo sapiens), P06280. activity change, negative = inhibition, % at 105 µM; inconclusive = small, poorly fitted or top-dose-only inhibition, or a rising curve; inactive = flat fitted curve, though single readings scatter; no compound was filed as active;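 further: 0% = full activity with enzyme and -100% = basal without enzyme; dose as in the result columns while the protocol names 77 µM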
An asterisk follows results filed as active; ? = inconclusive; / = not tested or not shown; & = joins results of further samples.

Start of the listing, in advance, six compounds:
miR-21 FLuc | GLA inh pH 4.5 | Rango complex inh | Rango release inh | molecule
/ | / | 0.1% | 16% | O=C(COc1coc(CN2CCN(c3ccccc3F)CC2)cc1=O)NCC1CCCO1 (stereo not given)
1% | -3 | -0.7% | -2% | O=S(=O)(c1ccccc1)N1CCCC1c1cccs1 (stereo not given)
0% | -2 | 4.5% | -1% | Cc1cc(OCc2nc(-c3ccncc3)no2)cc(C)c1Cl
0% | ? | ? | -17% | C=CCNc1nc(N)c(C(=C(C#N)C#N)c2ccccc2)s1
-20% | 6 | -1.6% | 0% | CN(C)c1nc(Oc2ccc(/C=N/O)cc2)nc(N(C)C)n1
3% | / | -0.7% | -15% | O=C(CN1C(=O)c2ccccc2C1=O)NCc1ccc(F)cc1

This part in full (from the top)
miR-21 FLuc | GLA inh pH 4.5 | Rango complex inh | Rango release inh | molecule
/ | / | 0.1% | 16% | O=C(COc1coc(CN2CCN(c3ccccc3F)CC2)cc1=O)NCC1CCCO1 (stereo not given)
1% | -3 | -0.7% | -2% | O=S(=O)(c1ccccc1)N1CCCC1c1cccs1 (stereo not given)
0% | -2 | 4.5% | -1% | Cc1cc(OCc2nc(-c3ccncc3)no2)cc(C)c1Cl
0% | ? | ? | -17% | C=CCNc1nc(N)c(C(=C(C#N)C#N)c2ccccc2)s1
-20% | 6 | -1.6% | 0% | CN(C)c1nc(Oc2ccc(/C=N/O)cc2)nc(N(C)C)n1
3% | / | -0.7% | -15% | O=C(CN1C(=O)c2ccccc2C1=O)NCc1ccc(F)cc1
/ | / | -1.4% | 9% | C=C[C@@]1(C)CC(=O)[C@]2(O)[C@@]3(C)[C@@H](O)CCC(C)(C)[C@@H]3[C@H](O)[C@H](OC(C)=O)[C@@]2(C)O1
8% | -10 | 1.2% | 8% | CC1=C(C(=O)OC2CCCCC2)C(c2ccco2)n2ncnc2N1 (stereo not given)
-4% | / | 0.9% | 0% | C/C(CC(=O)NCCc1ccccc1)=N\NC(=O)COc1ccc(Br)cc1
-16% | -7 | ? | 27% | CCOC(=O)CSc1ccc(-c2nc3cc(C)c(C)cc3[nH]2)cn1
0% | 4 | -3.7% | 0% | Cc1ccc(C)c(N(C(=O)Cn2nnc(-c3cccs3)n2)C(C(=O)NC2CC2)c2ccc(C)o2)c1 (stereo not given)
-6% | 9 | 5.1% | -2% | Cn1ncc(Br)c1C(=O)NC(=S)N1CCN(c2ccccn2)CC1
-2% | -22 | -5.1% | -10% | COC(=O)c1c(N2C(=O)CC(Sc3ccccc3C(=O)O)C2=O)sc(C)c1C (stereo not given)
2% | -2 | ? | ? | Cn1c(NNC(=O)c2cccc3ccccc23)cc(=O)n(C)c1=O
-1% | 1 | -0.3% | 0% | COCC(=O)N(Cc1cc2ccccc2[nH]c1=O)c1ccc(OC)cc1
-7% | / | 3.1% | -10% | CCn1nc(NS(=O)(=O)c2ccccc2)c2cc3cc(C)ccc3nc21
-5% | -8 | 0.2% | 2% | O=C(c1cccc(S(=O)(=O)N2CCc3ccccc3C2)c1)N1CCN(c2ccc(O)cc2)CC1
1% | / | ? | -12% | COc1ccc(CNC(=O)C2CCCN(S(=O)(=O)c3c(C)noc3/C=C/N(C)C)C2)cc1 (stereo not given)
0% | 1 | 0.3% | 1% | Cc1cc2c(s1)CCCCC(=O)N2
-7% | -1 | ? | -27% | Cc1cccc(NC(=O)CN2C(=O)N/C(=C/c3cc(C)n(-c4cccnc4)c3C)C2=O)c1
/ | / | -1.0% | 13% | CN(Cc1ccc(OC(F)F)cc1)C(=O)c1ccc2c(=O)n3c(nc2c1)CCC3
-8% | / | 0.7% | -4% | COc1ccc(NC(=O)c2cc(-c3cc(C)c(C)cc3O)n[nH]2)c(OC)c1
/ | / | 11% | 0% | COc1ccc(COC(=O)C2CCN(S(=O)(=O)c3ccc(F)cc3)CC2)cc1
8% | / | -1.6% | -6% | NC(=O)C(c1ccccc1)c1ccc(C(=O)c2ccccc2)cc1 (stereo not given)
28% | -8 | 1.1% | -7% | O=C(NCc1cccs1)C1CCN(c2ccc(S(=O)(=O)N3CCOCC3)cc2Cl)CC1
3% | -12 | ? | ? | COc1ccc(OC)c(C2C=C(c3ccc(C)c(C)c3)Nc3nnnn32)c1 (stereo not given)
-12% | 1 | 1.8% | 4% | Cn1c(=O)c2c(nc(CN3CCc4ccccc4C3)n2Cc2ccc(Cl)cc2)n(C)c1=O
1% | 0 | -1.3% | 5% | CN(c1ccccc1)S(=O)(=O)c1ccc(Cl)c(C(=O)NC2=NCCS2)c1
1% | 6 | 4.5% | ? | NC(=O)CC(NC(=O)Cc1cccc2ccccc12)c1ccc(NCc2ccccc2)c([N+](=O)[O-])c1 (stereo not given)
-3% | -9 | 0.7% | -13% | CCN1CCN(C(=O)c2ccc3c(=O)n(C4CCCC4)c(=S)[nH]c3c2)CC1
/ | / | 0.3% | 7% | CC(C)(CNC(=O)C1CCN(S(=O)(=O)c2cc([N+](=O)[O-])ccc2Cl)CC1)N1CCOCC1
-4% | / | 2.0% | -8% | COc1ccc(N(CC(=O)N2CCCC2)S(=O)(=O)c2ccc(NC(C)=O)cc2)cc1
-1% | 2 | -5.0% | -17% | O=C(NC1(C(F)(F)F)NC(=O)N(Cc2cccnc2)C1=O)c1ccccc1Cl (stereo not given)
5% | / | 1.0% | 1% | Cc1ccccc1NC(=O)CSc1nc2ccccc2c(=O)n1CC1CCCO1 (stereo not given)
/ | / | -1.2% | 6% | Cc1ccc(S(=O)(=O)N2CCOCC2)cc1NC(=O)COC(=O)CCC(=O)c1ccc(F)cc1
/ | / | 1.2% | -21% | CCOc1ccccc1N1CCN(C(=O)[C@@H]2CCCN2C2=NS(=O)(=O)c3ccccc32)CC1
/ | / | ? | -15% | C(#Cc1c(-c2ccsc2)sc2ccccc12)c1ccsc1
13% | / | -2.3% | -2% | Cc1ccc(S(=O)(=O)N2CCOCC2)cc1C(=O)N1CCC(Cc2ccccc2)CC1
4% | / | ? | 5% | COCc1c(C(=O)N/N=C/c2c[nH]c3ccccc23)nnn1-c1nonc1N
-1% | 3 | 2.7% | 16% | Cc1ccc(C)c(S(=O)(=O)N/N=C/c2ccc(F)cc2)c1
2% | / | 0.1% | 1% | Cc1ccc(C)c(N(C(=O)c2ccco2)C(C(=O)NC2CCCC2)c2ccco2)c1 (stereo not given)
2% | / | -2.1% | 1% | COc1ccc(/C=N/NC2=NS(=O)(=O)c3ccccc32)cc1OC(C)=O
/ | / | 4.6% | 19% | O=C1/C(=C\c2ccccc2)CN(C(=O)CCN2CCCCC2)C/C1=C/c1ccccc1
0% | -1 | -0.3% | 0% | O=C(CSc1nccn1-c1cccc(Cl)c1)NC1CCCC1
-1% | 13 | 2.4% | -11% | COc1ccccc1CN1CCNC(=O)C1CC(=O)N(C)Cc1ccon1 (stereo not given)
16% | -5 | 0.2% | -4% | CCc1cccc(CC)c1-n1c(SCn2nnc3ccccc3c2=O)nnc1-c1cccnc1
? | -7 | 0.8% | 18% | Cc1cc(Sc2nnc(/N=C/N(C)C)s2)c2ccccc2n1
1% | -27 | -0.1% | 1% | O=C(c1ccccc1Cl)N(Cc1ccc(Br)cc1)N1C(=O)CCC1=O
-1% | 5 | -3.7% | 20% | Cc1cc2occ(CC(=O)Nc3nccs3)c2cc1C(C)C
1% | -1&-11 | 2.1% | 2% | COC(=O)c1ccc(C23CC4(C2)[C@H](CN(C)[C@@H]4c2ccccc2)C3c2ccccc2)cc1 (stereo not given in full)

Going on with the list:
miR-21 FLuc | GLA inh pH 4.5 | Rango complex inh | Rango release inh | molecule
-2% | 2 | -0.3% | 2% | COc1ccc(OCC(=O)N/N=C2\CCCCc3ccccc32)cc1
-19% | -3 | ? | ? | Cc1[nH]nc(N=CC2=C(O)CC(c3ccco3)CC2=O)c1-c1ccccc1 (stereo not given)
-9% | / | -2.1% | 9% | CCN(CC)CCN1C(=O)C(=O)/C(=C(/O)c2c(C)[nH]c(C(=O)OC)c2C)C1c1cccnc1 (stereo not given)
0% | 4 | 0.8% | 47% | O=C(NCc1ccccn1)c1ccc(=O)oc1
27% | -16 | ? | 3% | FC(F)(F)c1cccc(NC(=S)Nc2ccc(Cl)c(Cl)c2)c1
-20% | / | -4.7% | 1% | COc1ccc(-c2noc(CNS(=O)(=O)c3ccccc3)n2)cc1
-16% | / | -1.1% | 12% | Cc1ccc2ccc(S(=O)(=O)NCc3ccco3)cc2c1
-2% | 5 | / | / | CSCCC(NC(=O)c1ccccc1)C(=O)Nc1ccc(NC(C)=O)cc1 (stereo not given)
/ | / | -2.2% | 1% | CN(C)S(=O)(=O)c1ccc(N2CCCC2)c(C(=O)NNC(=O)COc2ccccc2Cl)c1
-2% | / | -2.8% | 13% | COc1cccc(CN2CC(C(=O)NCCCn3ccnc3C)CCC2=O)c1 (stereo not given)
-14% | 16 | ? | -7% | COc1ccc(Cl)cc1C(=O)Nc1ccc(NC(=O)c2ccco2)cc1
-24% | / | -1.2% | -1% | CCc1ccc(NC(=O)Cn2nnc(C(=O)NCc3ccc4c(c3)OCO4)c2N)cc1
-16% | 6 | -5.7% | -16% | Fc1ccc(-c2nnc3ccc(N4CCCC4)nn23)cc1
-6% | -17 | -3.6% | -8% | COc1cccc(NC(=O)c2ncc(Cl)c(Cl)c2Cl)c1
2% | / | -1.6% | 8% | CN(C)CCCN(C(=O)c1ccc(S(=O)(=O)N2CCCCC2)cc1)c1nc2cc3c(cc2s1)OCO3
0% | -2 | -0.7% | 1% | COc1ccc(-c2ccc(C(C)=O)cc2)cc1[C@H]1[C@H]2C=CC[C@@H](C)[C@@H]2C(=O)N1Cc1ccccc1
/ | 0&0 | 0.0% | 4% | COc1[nH]c2ccc(F)cc2c1C(=O)OCC1CCN(CCNS(C)(=O)=O)CC1
2% | / | 0.7% | 5% | O=C(CSc1nnc(CNC(=O)c2cccs2)o1)Nc1ccccc1F
-27% | 1 | -2.9% | -4% | N/C(=N\OC(=O)c1ccc(Cl)cc1)c1[nH]ncc1Br
0% | / | 1.5% | -15% | CC(Sc1n[nH]c(N)n1)C(=O)NC1CCCCC1C (stereo not given)
1% | -8 | -0.5% | -5% | O=C(NCCN1C(=O)S/C(=C\c2ccccc2F)C1=O)C1CCCN1C(=O)c1cccs1 (stereo not given)
/ | / | -3.3% | -9% | O=C(NCC1CCCO1)c1nn2c(C(F)(F)F)cc(-c3ccco3)nc2c1Cl (stereo not given)
-1% | 3 | -0.1% | -6% | Cc1cc2ncc(Cl)nc2cc1C
20% | -5 | -1.7% | -7% | CC1(C)CC2CC(C)(CN2S(=O)(=O)c2ccc(C(=O)Nc3ccc(S(=O)(=O)N4CCOCC4)cc3)cc2)C1 (stereo not given)
-55% | -13 | ? | ? | CCOC(=O)/C(C#N)=C/C=C1/C=CC=CN1C
-3% | / | -1.3% | -10% | COc1ccccc1NC(=O)/C(C#N)=C/c1ccc(OCCN2CCOCC2)c(OC)c1
-1% | -2 | -0.4% | -16% | COc1ccc(Cn2c(C(C)C)nc3sc4ccccc4c(=O)c3c2=O)cc1
-3% | 0 | -0.4% | 2% | CCOC(=O)C1C(=O)CC(=O)CC1CC(C)SCC (stereo not given)
-2% | -4 | 3.8% | 28% | COc1ccc(/C=C(\C#N)C(=O)Nc2cc(C)c(Cl)cc2OC)cc1O
-2% | -1 | 0.0% | -1% | CCOC(=O)CSCc1cn2cc(Cl)ccc2n1
? | 2 | 2.1% | 6% | CC1(C)N=C(N)N=C(N)N1c1ccc(OCCCOc2ccccc2)c(Cl)c1
/ | / | 0.8% | -4% | Cn1c(SCC(=O)NC(=O)Cc2ccccc2)nnc1-c1ccc(F)cc1
-4% | 11 | 6.5% | 7% | CCCCCNC(=O)c1ccc2c(=O)n(CCCN3CCCC3=O)c(=S)[nH]c2c1
-1% | / | 3.6% | 1% | COc1cc(CNCCc2c[nH]c3ccccc23)cc(Cl)c1OCC(N)=O

These rows are one share of the data; count on the stated rates, not on these rows.
